# Screening data deposited in PubChem BioAssay by Broad Institute.
# FGF22 binding – binders of human FGF22 protein, primary screen, FGF22 synaptogenesis inhibitor project, biophysical, thermal shift, single point; Fibroblast growth factor 22 (Homo sapiens), Q9HCT0; recombinant FGF22 thermal shift, SYPRO orange fluorescence; percent of sucrose octasulfate shift, DMSO zero; calls only at 9.99 µM; hit rate 1.5% among 340,000; AID 651658, 2012;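 active means melting point raised past a set limit in the mean and every replicate; three in four hits are not shown here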
# Target sequence (Q9HCT0 whole entry, looked up): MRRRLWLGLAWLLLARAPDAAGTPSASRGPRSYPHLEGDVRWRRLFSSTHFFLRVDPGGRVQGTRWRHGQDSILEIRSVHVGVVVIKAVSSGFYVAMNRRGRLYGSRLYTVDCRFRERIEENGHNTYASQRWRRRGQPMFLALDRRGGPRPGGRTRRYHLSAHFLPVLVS
# MLL AF4-AF9 inh – inhibitors of AF4 peptide binding to AF9, primary screen, biochemical, AlphaScreen, biotin-AF4 peptide, FLAG-AF9, single point | Protein AF-9 (Homo sapiens), P42568 | inhibition, % at 10 µM | hit rate 0.47% among 350,000 | AID 651704, 2012;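 active means every replicate reaching a set inhibition limit, whatever the replicate mean, cut at about 25% in these data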;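 further: 0% = plate neutral control median and 100% = total signal loss; the record names both 10 and 1 µM as test concentration; the first replicate is given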
# Target sequence (P42568 whole entry, looked up): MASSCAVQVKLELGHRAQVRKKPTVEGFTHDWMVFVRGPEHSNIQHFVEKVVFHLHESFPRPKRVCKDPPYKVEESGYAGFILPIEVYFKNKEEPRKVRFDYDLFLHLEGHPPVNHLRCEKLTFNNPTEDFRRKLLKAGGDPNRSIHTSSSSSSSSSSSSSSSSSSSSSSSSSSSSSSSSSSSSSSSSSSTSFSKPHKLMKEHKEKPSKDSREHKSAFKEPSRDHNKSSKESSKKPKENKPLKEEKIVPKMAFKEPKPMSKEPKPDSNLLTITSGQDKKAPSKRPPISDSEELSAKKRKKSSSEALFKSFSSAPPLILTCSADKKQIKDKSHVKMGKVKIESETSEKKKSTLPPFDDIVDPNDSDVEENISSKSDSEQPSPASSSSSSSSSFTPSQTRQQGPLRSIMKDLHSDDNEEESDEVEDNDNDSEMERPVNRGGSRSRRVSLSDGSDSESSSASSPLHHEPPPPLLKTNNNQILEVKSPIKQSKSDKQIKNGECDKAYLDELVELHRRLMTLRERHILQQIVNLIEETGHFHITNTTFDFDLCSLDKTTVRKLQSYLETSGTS
# Starred values were filed as active, the others as inactive; i = inactive. A portion of the library; count on the stated rates, not on these rows.
# Sample of the layout:
SMILES,FGF22 binding,MLL AF4-AF9 inh
CCC(=O)Nc1ccc2c(c1)C(=O)N(C)C[C@@H](OC)[C@@H](C)CN(Cc1ccccc1)[C@H](C)CO2,i,1.4
COc1ccc(CN(C)C[C@H]2Oc3c(NC(=O)c4ccc(-c5nccs5)cc4)cccc3C(=O)N([C@H](C)CO)C[C@H]2C)cc1,i,4.2
C[C@H](CO)N1C[C@H](C)[C@H](CN(C)S(=O)(=O)c2cn(C)cn2)OCCCC[C@H](C)Oc2ccc(N(C)C)cc2C1=O,i,-2.9
CC(C)NC(=O)Nc1cccc2c1O[C@@H](CN(C)S(=O)(=O)c1ccccc1)[C@H](C)CN([C@@H](C)CO)C2=O,i,-1.2
C[C@@H]1CCCCO[C@H](CN(C)C(=O)c2ccccc2)[C@@H](C)CN([C@@H](C)CO)C(=O)c2cc(NC(=O)CCC(F)(F)F)ccc2O1,i,-0.8
COCC#Cc1cnc2c(c1)C(=O)N([C@H](C)CO)C[C@H](C)[C@H](CN(C)Cc1ccccc1F)O2,i,-3.4
C[C@H](CO)N1C[C@H](C)[C@H](CN(C)S(=O)(=O)c2ccccc2C#N)OCc2cn(nn2)CCCC1=O,i,0.0
COC(=O)[C@H](Cc1ccccc1)N1CC2=C[C@@H](C3CC3)n3c(=O)n(C)c(=O)n3[C@H]2[C@@H]1[C@@H](O)Cc1ccccc1,i,-3.6
C[C@@H](NC(=O)C[C@@H]1C=C[C@@H](NC(=O)Nc2ccc3c(c2)OCO3)[C@H](CO)O1)c1ccccc1,i,0.5
CN1C(=O)c2cc(NC(=O)Nc3ccc(F)cc3)ccc2OC[C@H]2O[C@H](CC(=O)NC3CCC3)CC[C@H]21,i,0.5

# All compounds of this part, previewed entries included:
SMILES,FGF22 binding,MLL AF4-AF9 inh
CCC(=O)Nc1ccc2c(c1)C(=O)N(C)C[C@@H](OC)[C@@H](C)CN(Cc1ccccc1)[C@H](C)CO2,i,1.4
COc1ccc(CN(C)C[C@H]2Oc3c(NC(=O)c4ccc(-c5nccs5)cc4)cccc3C(=O)N([C@H](C)CO)C[C@H]2C)cc1,i,4.2
C[C@H](CO)N1C[C@H](C)[C@H](CN(C)S(=O)(=O)c2cn(C)cn2)OCCCC[C@H](C)Oc2ccc(N(C)C)cc2C1=O,i,-2.9
CC(C)NC(=O)Nc1cccc2c1O[C@@H](CN(C)S(=O)(=O)c1ccccc1)[C@H](C)CN([C@@H](C)CO)C2=O,i,-1.2
C[C@@H]1CCCCO[C@H](CN(C)C(=O)c2ccccc2)[C@@H](C)CN([C@@H](C)CO)C(=O)c2cc(NC(=O)CCC(F)(F)F)ccc2O1,i,-0.8
COCC#Cc1cnc2c(c1)C(=O)N([C@H](C)CO)C[C@H](C)[C@H](CN(C)Cc1ccccc1F)O2,i,-3.4
C[C@H](CO)N1C[C@H](C)[C@H](CN(C)S(=O)(=O)c2ccccc2C#N)OCc2cn(nn2)CCCC1=O,i,0.0
COC(=O)[C@H](Cc1ccccc1)N1CC2=C[C@@H](C3CC3)n3c(=O)n(C)c(=O)n3[C@H]2[C@@H]1[C@@H](O)Cc1ccccc1,i,-3.6
C[C@@H](NC(=O)C[C@@H]1C=C[C@@H](NC(=O)Nc2ccc3c(c2)OCO3)[C@H](CO)O1)c1ccccc1,i,0.5
CN1C(=O)c2cc(NC(=O)Nc3ccc(F)cc3)ccc2OC[C@H]2O[C@H](CC(=O)NC3CCC3)CC[C@H]21,i,0.5
CCO[C@@H]1OC(C(=O)N2CCCCCCC2)=C[C@H](C)[C@H]1CCCO,i,-3.9
COc1ccc(-c2cnc3c(c2)C(=O)N([C@H](C)CO)C[C@@H](C)[C@H](CN(C)C(=O)C2CCOCC2)O3)cc1,i,-1.4
COc1ccc2c3c([nH]c2c1)[C@@H](CO)N(C(=O)NC(C)C)CC31CCN(C(=O)NC(C)C)CC1,i,0.0
C[C@@H]1CN([C@H](C)CO)C(=O)c2ccccc2-c2ccccc2CO[C@@H]1CN(C)C(=O)Nc1ccc2c(c1)OCO2,i,-3.0
CCC(=O)N1[C@H](CO)[C@@H]2c3ccccc3N(S(=O)(=O)c3ccccc3C)C[C@@H]21,i,-1.0
CO[C@@H](CN(C)C(=O)c1ccccc1F)[C@@H](C)CN([C@@H](C)CO)S(=O)(=O)c1ccc(F)cc1,i,-1.7
C[C@@H]1CCCCO[C@H](CN(C)Cc2ccc(C(F)(F)F)cc2)[C@H](C)CN([C@@H](C)CO)C(=O)c2cc(NC(=O)Nc3ccc4c(c3)OCO4)ccc2O1,i,-1.1
CC(=O)Nc1ccc(S(=O)(=O)NCC2CCN(C(=O)C(=O)c3cc4ccccc4o3)CC2)cc1,i,2.3
C[C@@H]1CN([C@@H](C)CO)C(=O)c2cccc(NS(C)(=O)=O)c2O[C@@H]1CN(C)Cc1ccc(Oc2ccccc2)cc1,i,0.6
O=C(CN1CCOCC1)N[C@H]1CC[C@H](CCn2cc(C3CC3)nn2)O[C@@H]1CO,i,0.8
CO[C@H]1CN(C)C(=O)c2cc(NC(=O)C3CC3)ccc2OC[C@H](C)N(C(=O)CN(C)C)C[C@H]1C,i,0.5
O=C(C[C@H]1C=C[C@@H](NC(=O)Nc2ccccc2)[C@H](CO)O1)NCc1cccc(F)c1,i,-10.0
C[C@@H]1CN([C@H](C)CO)C(=O)c2cccc(NC(=O)Nc3ccc(F)cc3)c2O[C@H]1CN(C)Cc1ccc(C(F)(F)F)cc1,i,3.7
CNC[C@@H]1Oc2c(NC(=O)Nc3ccc(F)cc3)cccc2C(=O)N([C@@H](C)CO)C[C@H]1C,i,-1.5
C[C@@H]1CN([C@@H](C)CO)C(=O)Cc2cc(N(C)C)ccc2O[C@H]1CN(C)S(=O)(=O)c1ccc(F)cc1,i,5.1

# Going on with the list:
SMILES,FGF22 binding,MLL AF4-AF9 inh
C[C@@H]1CN([C@H](C)CO)C(=O)c2cccc(NS(=O)(=O)c3cccs3)c2O[C@H]1CN(C)Cc1ccc(C(=O)O)cc1,i,-6.7
C[C@@H]1CN([C@@H](C)CO)S(=O)(=O)c2ccc(-c3cccc(C#N)c3)cc2O[C@@H]1CN(C)C(=O)Nc1ccccc1F,i,-0.8
Cc1ccc(S(=O)(=O)NCC[C@H]2CC[C@@H](NC(=O)c3cccnc3)[C@H](CO)O2)cc1,i,-2.3
O=C(N[C@H]1CC[C@H](CCn2cc(-c3ccccn3)nn2)O[C@H]1CO)c1ccncc1,i,-1.2
CO[C@H]1CN(C)C(=O)c2ccc(NS(C)(=O)=O)cc2OC[C@H](C)N(CC2CC2)C[C@H]1C,i,-0.7
O=C(Nc1ccc(Cl)c(Cl)c1)N[C@H]1CC[C@@H](CCn2cc(C3CCCC3)nn2)O[C@@H]1CO,i,0.6
CCCNC(=O)Nc1ccc2c(c1)OC[C@@H](C)N(C(=O)C1CCC1)C[C@H](C)[C@H](OC)CN(C)C2=O,i,-1.8
C[C@H](CO)N1C[C@H](C)[C@H](CN(C)Cc2ccc3c(c2)OCO3)OCCCC[C@H](C)Oc2ccc(NC(=O)NC3CCCCC3)cc2C1=O,i,5.2
COCC(=O)N(C)C[C@@H]1[C@H](c2ccc(-c3ccccc3)cc2)[C@@H](CO)N1C(C)=O,i,-1.9
O=C1CCC[C@@H]2c3[nH]c4ccccc4c3CCN12,i,3.8
COc1ccc(CN(C)C[C@@H]2OCCCC[C@@H](C)Oc3ccc(N(C)C)cc3C(=O)N([C@@H](C)CO)C[C@H]2C)cc1,i,11.6
COc1ccc(S(=O)(=O)Nc2ccc3c(c2)OC[C@H](C)NC[C@H](C)[C@@H](OC)CN(C)C3=O)cc1,i,-1.1
C[C@@H]1CN([C@@H](C)CO)C(=O)Cc2cc(NC(=O)C3CCCCC3)ccc2O[C@H]1CN(C)Cc1ccc(C(F)(F)F)cc1,i,1.1
COc1ccc(C#Cc2cnc3c(c2)C(=O)N([C@@H](C)CO)C[C@@H](C)[C@@H](CN(C)C(=O)CC2CC2)O3)cc1,i,-2.8
CCCNC(=O)N1CC2(CN(Cc3cccc(OC)c3)C2)c2c(n(C)c3cc(OC)ccc23)[C@@H]1CO,i,16.2
C[C@@H]1CN([C@H](C)CO)C(=O)c2cc(NC(=O)CCN3CCOCC3)ccc2O[C@@H]1CN(C)S(=O)(=O)c1cn(C)cn1,i,-1.9
C/C=C/c1ccc2c(c1)O[C@H](CN(C)CC1CCOCC1)[C@H](C)CN([C@H](C)CO)S2(=O)=O,i,-0.1
COc1cccc(S(=O)(=O)N2CCCCN3[C@@H](CO)[C@H](c4ccc(C#CC(C)C)cc4)[C@@H]3C2)c1,i,14.1
CCCNC(=O)[C@@H]1[C@@H](CO)[C@@H]2Cn3c(ccc(-c4cccc(OC)c4)c3=O)[C@H]1N2CCC,i,-0.3
CC(C)CC#Cc1cnc2c(c1)C(=O)N([C@H](C)CO)C[C@@H](C)[C@H](CN(C)Cc1cccc(F)c1)O2,i,10.4
C[C@@H]1CN([C@@H](C)CO)C(=O)c2cc(NC(=O)NC3CCCCC3)ccc2O[C@@H]1CN(C)C,i,-1.9
C[C@@H](NC(=O)C[C@H]1CC[C@@H](NS(=O)(=O)c2cccc(F)c2)[C@H](CO)O1)c1ccccc1,i,0.1
CC(C)C#Cc1cnc2c(c1)C(=O)N([C@H](C)CO)C[C@H](C)[C@@H](CN(C)Cc1ccccc1F)O2,i,5.5
CO[C@H]1CN(C)C(=O)c2cc(NC(=O)Nc3ccccc3)ccc2OC[C@H](C)N(CC2CC2)C[C@@H]1C,i,0.1
COc1ccc(CN(C)C[C@H]2Oc3c(NC(=O)Nc4c(C)noc4C)cccc3C(=O)N([C@H](C)CO)C[C@@H]2C)cc1,i,-0.5

# Further records.
SMILES,FGF22 binding,MLL AF4-AF9 inh
C[C@H]1CN([C@@H](C)CO)C(=O)c2cccc(NC(=O)c3ccncc3)c2O[C@@H]1CN(C)Cc1ccncc1,i,3.0
Cc1noc(C)c1NC(=O)Nc1ccc2c(c1)C(=O)N([C@@H](C)CO)C[C@H](C)[C@@H](CN(C)C(=O)Cc1ccccc1)OCCCC[C@@H](C)O2,i,-3.7
CC(=O)N(C)C[C@H]1Oc2cc(-c3ccccc3)ccc2S(=O)(=O)N([C@H](C)CO)C[C@@H]1C,i,-0.2
COc1ccccc1NC(=O)N(C)C[C@H]1OCc2ccccc2-c2c(n(C)c3ccccc23)C(=O)N([C@H](C)CO)C[C@@H]1C,i,6.8
C/C=C/c1ccc([C@@H]2[C@@H](C#N)N(c3nc(-c4ccccc4)cs3)[C@@H]2CO)cc1,i,-11.3
CO[C@@H]1CN(C)C(=O)c2ccc(NC(=O)C3CCCCC3)cc2OC[C@@H](C)N(C(=O)c2ccccc2)C[C@H]1C,i,-0.2
CN(C)C(=O)C[C@@H]1CC[C@H]2[C@@H](COC[C@@H](O)CN2CC2CCOCC2)O1,i,0.9
C[C@@H]1CN([C@@H](C)CO)C(=O)Cc2cc(N(C)C)ccc2O[C@H]1CN(C)C(=O)Nc1ccc(C(F)(F)F)cc1,i,4.3
COc1ccc(S(=O)(=O)Nc2ccc3c(c2)CC(=O)N([C@@H](C)CO)C[C@H](C)[C@@H](CN(C)CC2CCCCC2)O3)cc1,i,0.7
CCCNC(=O)C[C@@H]1CC[C@H]2[C@@H](COc3ccc(NC(=O)Nc4ccccc4F)cc3C(=O)N2C)O1,i,-3.0
C[C@@H]1CN([C@@H](C)CO)C(=O)Cc2cc(NC(=O)Cn3cnnn3)ccc2O[C@@H]1CN(C)Cc1ccc(Oc2ccccc2)cc1,i,7.5
Cc1noc(C)c1NC(=O)N(C)C[C@H]1Oc2ccc(NC(=O)NC(C)C)cc2CC(=O)N([C@H](C)CO)C[C@@H]1C,i,-10.7
COc1ccc2c3c(n(C)c2c1)[C@H](CO)N(C(=O)Cc1ccccn1)CC31CCN(C)CC1,i,-0.5
CCCNC(=O)N1CCC2(CC1)CN(Cc1ccccc1)[C@H](CO)c1[nH]c3cc(OC)ccc3c12,i,2.0
C[C@@H]1CN([C@@H](C)CO)C(=O)c2cc(NC(=O)Nc3ccccc3)ccc2O[C@H]1CN(C)Cc1ccc(Oc2ccccc2)cc1,i,0.4
C[C@@H]1CN([C@H](C)CO)C(=O)Cc2cc(NC(=O)Nc3ccc(C(F)(F)F)cc3)ccc2O[C@@H]1CN(C)C(=O)Nc1cccc2ccccc12,i,-19.2
CO[C@@H]1CN(C)C(=O)c2cc(NC(=O)C3CCC3)ccc2OC[C@@H](C)N(Cc2cccnc2)C[C@@H]1C,i,-1.5
C[C@@H]1CN([C@@H](C)CO)C(=O)c2cccc(NC(=O)c3cnccn3)c2O[C@H]1CN(C)Cc1ccncc1,i,-3.6
C[C@@H]1CN([C@H](C)CO)C(=O)c2cc(NC(=O)Cc3ccccc3)ccc2O[C@@H](C)CCCCO[C@H]1CN(C)C(=O)Nc1ccc(F)cc1,i,1.5
Cc1ccccc1C(=O)N1CCN(C(=O)C(=O)c2cccc(C(F)(F)F)c2)CC1,i,-1.2
C[C@H]1CN([C@@H](C)CO)C(=O)c2cc(NC(=O)C3CC3)ccc2O[C@@H]1CN(C)Cc1ccc(C(=O)O)cc1,i,-1.3
COc1ccccc1NC(=O)N[C@@H]1CC[C@@H](CCNC(=O)c2ccc3c(c2)OCO3)O[C@@H]1CO,i,-2.1
C[C@H]1CCCCO[C@H](CN(C)CC2CCCCC2)[C@@H](C)CN([C@@H](C)CO)C(=O)c2cc(NC(=O)c3ccncc3)ccc2O1,i,2.1
N#C[C@@H]1[C@H](c2ccc(C3=CCCC3)cc2)[C@@H](CO)N1C(=O)NC1CCCC1,i,-3.8
C[C@H]1CN([C@@H](C)CO)C(=O)c2cc(C#CC3(O)CCCC3)cnc2O[C@H]1CN(C)Cc1cccnc1,i,-2.7
CCCN1C[C@H](C)[C@@H](OC)CN(C)C(=O)c2cc(NC(=O)C3CCOCC3)ccc2OC[C@@H]1C,i,-0.6
Cc1ccc(S(=O)(=O)N(C)C[C@H]2OCCCC[C@@H](C)Oc3ccc(NC(=O)Nc4ccc(C(F)(F)F)cc4)cc3C(=O)N([C@@H](C)CO)C[C@H]2C)cc1,i,-0.8
